gsp ag = qHTS for Agonist of gsp, the Etiologic Mutation Responsible for Fibrous Dysplasia/McCune-Albright Syndrome: qHTS; gsp mutant cells, cAMP HTRF, 30 min; control for the full effect not named in the record; Potency, µM (series often up to 76.9 µM), for the others: at the top dose activation (cAMP increase), most hits filed as activators; actives 0.13% (n = 340,000); active = well fitted activation curve with a large enough effect; inconclusive = small, poorly fitted or top-dose-only effect, or another doubt; inactive = no such curve, though single readings can be large or run the other way; cell line not stated here;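 also: phosphodiesterase inhibitor Ro 20-1724 added with compounds to block cAMP breakdown; potency is read from the fitted curve at half-maximal effect; nearly all actives have a fitted effect of over 60% in size; about a fifth of the inactives were tested at one dose only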
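Cells in DMEM/10% FBS with G418 were pretreated with compounds in DMSO plus […] (300 uM stock) for 30 min at 37C. cAMP was measured by HTRF (cAMP-d2 plus anti-cAMP antibody-K) after 30 min at room temperature.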
ClpP mod = qHTS Assay for Activators of ClpP; AID 651965, 2013; ATP-dependent Clp protease proteolytic subunit (Bacillus subtilis (strain 168)), P80244; actives 1.9% (n = 340,000); purified B. subtilis ClpP, FRET peptide cleavage, 20 min; Potency, µM (series often up to 57.5 µM), for the others: top-dose activity change, negative = active; active = well fitted falling curve with a large enough effect; inconclusive = small, poorly fitted or top-dose-only effect; inactive = no such curve, though single readings can be large or run the other way; also: potency is read from the fitted curve at half-maximal effect; the source files actives as falling curves though it sought activators and does not explain the sign; nearly all actives have a fitted effect of over 65% in size; many hits overshoot -100%
Target sequence (P80244 whole entry, looked up): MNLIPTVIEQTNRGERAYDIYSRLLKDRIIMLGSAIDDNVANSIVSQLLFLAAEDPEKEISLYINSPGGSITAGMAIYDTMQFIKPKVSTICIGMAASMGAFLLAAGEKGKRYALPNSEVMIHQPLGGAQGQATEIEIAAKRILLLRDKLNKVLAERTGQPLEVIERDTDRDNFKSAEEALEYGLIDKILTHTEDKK
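Buffer: 100 mM Tris/HCl pH8, 100 mM KCl, 0.05% low protease BSA, 2.5% glycerol, 0.01% Tween-20. ClpP 10 microg/mL final; 20 min RT; delta FRET normalized to ADEP and DMSO controls.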
Menin MLL FP FL = qHTS Assay for Inhibitors Targeting the Menin-MLL Interaction in MLL Related Leukemias: Competition With Fluorescein Labeled MLL-derived Peptide; Fluorescence polarization, fluorescein-MLL peptide displacement from menin; AID 1766, 2009; FP activity change, % at 61.4 µM; 290,000 tested, under 10 active; inconclusive = falling polarisation curve, or a change in total fluorescence; inactive = total fluorescence flat and polarisation flat or rising; no compound was filed as active; the % refers to the polarisation; negative = inhibition;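 also: % of control where 0% means no effect; inhibitors lower the polarisation; unlabelled MLL peptide was the positive control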
gsp antagonist = qHTS for Antagonists of gsp, the Etiologic Mutation Responsible for Fibrous Dysplasia/McCune-Albright Syndrome: qHTS; Potency, µM (highest dose often 76.9 µM), for inactives: top-dose activity change, negative = inhibition, most hits filed as inhibitors; AID 624288, 2012; actives 0.4% (n = 340,000); gsp-mutant cells, cAMP HTRF, 30 min; control for the full effect not named in the record; active = falling curve of any shape with a large fitted effect; inconclusive = falling curve, mostly with a smaller effect; inactive = flat or rising curve; cell line not stated here;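 also: intracellular cAMP measured with PDE inhibitor Ro 20-1724 present during compound exposure; potency is read from the fitted curve at half-maximal effect; % is scaled to controls: 0 for no effect and ±100 for the full control effect; nearly all actives have a fitted effect of over 65% in size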
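Cells, 2000/well, grown 16–24 h in DMEM 10% FBS with 0.5 mg/ml G418, then compounds plus […] (300 uM addition stock), 30 min at 37C. cAMP read by HTRF (cAMP-d2 and anti-cAMP antibody-K in lysis buffer) after 30 min RT.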
D2 PAM = Beta-Arrestin HTS for Positive Allosteric Modulators of the Human D2 Dopamine Receptor: Potentiators | D(2) dopamine receptor (Homo sapiens), P14416 | DiscoveRx D2 beta-arrestin cells, luminescence, 90 min; 100% = 57 uM dopamine signal | potentiation, % (no concentration beside the values) | actives 0.23% (n = 360,000); active = potentiation of 50% or more; inconclusive = 30% to 50%; inactive = 30% or less;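 also: compound concentration not given in the record; tested on top of an EC20 dose of dopamine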
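D2 cells co-treated with compound plus 50 nM dopamine (EC20) for 90 min at 37 deg C to detect potentiation. Beta-arrestin recruitment was read as enzyme-fragment luminescence after 1 h at ambient temperature. Full response was set by 57 uM dopamine.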
Sfp inh = qHTS Assay for Inhibitors of Bacillus subtilis Sfp phosphopantetheinyl transferase (PPTase); Potency, µM, for the others: max response, negative = inhibition, most hits filed as inhibitors; 4'-phosphopantetheinyl transferase ffp (Bacillus subtilis), Q9F4F7; actives 3.5% (n = 310,000); AID 1490, 2009; Biochemical Sfp PPTase activity, qHTS; active = well fitted inhibition curve with a large enough effect; inconclusive = small, poorly fitted or top-dose-only effect, or another doubt; inactive = no such curve, though single readings can be large or run the other way;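 also: the enzyme is Sfp with the accession as filed and its product quenches rhodamine fluorescence; potency is read from the fitted curve at half-maximal effect; 0% = enzyme reaction without inhibitor and -100% = no enzyme wells; top concentration of the series not given in the record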
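Compounds were incubated with enzyme (final 15 nM) for 15 min at room temperature before substrate addition started the reaction. Fluorescence at 525 nm excitation, 598 nm emission was recorded immediately and after 30 minutes.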
TRPV1 PAM = HTS Assay for Compounds that Act as Potentiators of the Vanilloid Receptor 1 | Transient receptor potential cation channel subfamily V member 1 (Homo sapiens), Q8NER1 | actives 0.02% (n = 320,000) | potentiation, % at 8.33 µM | TRPV1-expressing cells, Fluo-8 calcium influx, capsaicin EC20 potentiation; host cell line not named in the record; control for the full effect not named in the record | AID 540277, 2011; active means potentiation above 80%; inconclusive means 30% to 80%; inactive means below 30%; also: 0% is about no effect
Target sequence (Q8NER1 whole entry, looked up): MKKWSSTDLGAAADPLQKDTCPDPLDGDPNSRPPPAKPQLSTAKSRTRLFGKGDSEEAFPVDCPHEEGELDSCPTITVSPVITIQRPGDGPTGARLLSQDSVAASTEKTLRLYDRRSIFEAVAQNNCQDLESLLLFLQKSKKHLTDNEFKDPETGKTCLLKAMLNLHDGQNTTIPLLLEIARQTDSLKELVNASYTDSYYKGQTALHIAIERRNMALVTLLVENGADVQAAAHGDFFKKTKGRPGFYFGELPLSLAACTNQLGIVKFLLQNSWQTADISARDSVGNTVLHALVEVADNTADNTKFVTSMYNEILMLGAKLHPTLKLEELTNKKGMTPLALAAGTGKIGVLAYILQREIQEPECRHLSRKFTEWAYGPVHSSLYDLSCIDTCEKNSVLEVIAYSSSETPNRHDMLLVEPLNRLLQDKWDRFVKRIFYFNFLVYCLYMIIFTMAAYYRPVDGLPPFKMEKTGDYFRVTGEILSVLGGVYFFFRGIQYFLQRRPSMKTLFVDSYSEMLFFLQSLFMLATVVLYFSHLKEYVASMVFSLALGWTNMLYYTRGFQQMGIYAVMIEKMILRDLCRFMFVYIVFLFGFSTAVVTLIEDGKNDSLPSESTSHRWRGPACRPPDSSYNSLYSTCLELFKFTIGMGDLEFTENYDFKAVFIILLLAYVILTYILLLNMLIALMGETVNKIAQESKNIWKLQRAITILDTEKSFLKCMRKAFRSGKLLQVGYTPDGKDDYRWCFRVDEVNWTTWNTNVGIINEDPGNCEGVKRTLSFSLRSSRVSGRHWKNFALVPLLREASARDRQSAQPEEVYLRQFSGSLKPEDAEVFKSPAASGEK
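Cells expressing TRPV1 were dye-loaded with Fluo-8 and read kinetically: 10 s baseline, 3 min after compound (agonist portion), then 2 min after EC20 capsaicin (allosteric enhancer portion). Calcium-bound dye fluorescence at 480/520 nm.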
Active calls of the source: *; ? = inconclusive; nt = not tested or not shown; & = joins results of further samples; [ ] = dose if it differs, or a comment. Rows were taken by chance; 5.1% or so of the library scored in one or more.

SMILES | gsp ag | ClpP mod | Menin MLL FP FL | gsp antagonist | D2 PAM | Sfp inh | TRPV1 PAM
CC1=C(C)CC(C(=O)NCc2ccccc2F)C(C(=O)O)C1 (stereo not given) | nt | nt | -0.2 | nt | nt | 5% | ?
Cc1c(Cc2ccccc2)c(=O)oc2c(C)c(OCC(=O)NCC3CCC(C(=O)O)CC3)ccc12 (stereo not given) | nt | 4.5% | -2.3 | -16% | -24 | -10% | -15
CC(Cc1ccccc1)NC(=O)CCCN1C(=O)c2ccccc2C1=O (stereo not given) | -5% | 2.8% | 3.3 | 7% | -5 | 10% | -6
CSC(=NNC(=O)c1ccccc1O)SC | -33%[inhibitor] | -1.6% | 1.8 | -4% | 7 | -4% | -8
COc1cc(C(=O)N2CCN(S(=O)(=O)c3cc(C)ccc3C)CC2)ccc1OCC(=O)N1CCOCC1 | 19% | -1.2% | nt | -3% | -6 | nt | nt
CC(=O)Nc1cccc(NC(=O)c2ccccc2OCc2c(C)noc2C)c1 | -21% | -14% | nt | -7% | -20 | nt | 5
CCc1ccccc1NC(=S)N(CCN1CCOCC1)C1CCN(C(C)=O)CC1 | 7% | nt | -0.1 | 2% | -1 | 6% | 22
COc1ccc(C(=O)n2cnnc2N)cc1 | 8% | -0.6% | 2.6 | 10% | -4 | 6% | -3
CCCCN(C(=O)CSc1nnc(Nc2ccccc2)s1)c1c(N)n(CCC)c(=O)[nH]c1=O | 3% | 0.4% | 0.5 | 5% | -11 | 3% | -4
COc1ccc(Cc2nnc(NC(=O)c3c(-c4ccccc4)noc3C)s2)cc1OC | nt | nt | 4.2 | nt | nt | -22% | -13
COc1ccc(NC(=O)CSc2nnnn2C2CC3C=CC2C3)cc1 (stereo not given) | 15% | 0.9% | nt | -1% | -2 | 6% | ?
CC(C)(C)C(=O)COC(=O)CNC(=O)c1ccc(Oc2ccccc2)cc1 | -49%[inhibitor] | -1.1% | 2.1 | 2% | 0 | 41%[activator] | -1
CCOc1ccc(NC(=O)CN(C)C(=O)CN2C(=O)c3ccc([N+](=O)[O-])cc3C2=O)cc1OCC | ? | -1.3% | nt | 10% | 57* | nt | 9
COc1ccc2occ(NC(C)=O)c2c1 | ? | -0.3% | 0.1 | 10% | -2 | 12% | -1
Cc1ccc(S(=O)(=O)NCCC(=O)NC2CCCC2)cc1 | -18% | -0.2% | 0.3 | -3% | -9 | 19% | 7
CCOC(=O)C(=O)C1=C(N2CCOCC2)/C(=C\c2cccc([N+](=O)[O-])c2)CC1 | ? | 1.0% | -0.5 | -7% | -21 | ? | -9
COc1ccc(-n2c(SCC(=O)/C(C#N)=C(\C)N)nc3ccccc3c2=O)cc1OC | -4% | -0.4% | 1.6 | -3% | -1 | -5% | 1
CCOC(=O)N1CCN(C(=O)C2CCN(S(=O)(=O)c3ccc(NC(C)=O)cc3)CC2)CC1 | -28% | -1.9% | nt | 2% | -7 | 16% | -2
C[C@H](O)[C@@H]1C(=O)N2CCc3ccc(N4CCOCC4)cc3[C@@H]2C[C@@H]1N(C)C(=O)C(C)(C)C | nt | -0.1% | nt | 1% | -5 | nt | nt
COc1ccccc1NC(=O)NCCN1CCN(c2cccc(Cl)c2)CC1 | -14% | 0.8%&1.3% | 1.8 | 4% | -22 | 9% | -19
CCOC(=O)C(NC(C)=O)(OCc1ccc(F)cc1)C(F)(F)F (stereo not given) | -29% | -4.1% | 0.1 | 8% | -8 | 12% | 13
Cc1c(C#N)c(SCC(N)=O)nc2c1CCCC2 | 7% | -2.0% | 1.1 | 3% | -8 | 2% | -12
O=C(NCCc1ccc(F)cc1)Nc1ccccc1Cl | 0% | 0.8% | nt | 2% | -24 | 6% | -13
O=C(C1CCC1)N1CCc2cc(S(=O)(=O)NCCCN3CCCCC3)ccc21 | ? | -1.1% | -4.4 | 1% | -10 | 6% | 0
CC(CC(=O)O)CC(=O)Nc1ccc(S(N)(=O)=O)cc1 (stereo not given) | 23% | 1.7% | -5.9 | 1% | -5 | 3% | -22

The final 5 records of the part above open the next one.
SMILES | gsp ag | ClpP mod | Menin MLL FP FL | gsp antagonist | D2 PAM | Sfp inh | TRPV1 PAM
CCOC(=O)C(NC(C)=O)(OCc1ccc(F)cc1)C(F)(F)F (stereo not given) | -29% | -4.1% | 0.1 | 8% | -8 | 12% | 13
Cc1c(C#N)c(SCC(N)=O)nc2c1CCCC2 | 7% | -2.0% | 1.1 | 3% | -8 | 2% | -12
O=C(NCCc1ccc(F)cc1)Nc1ccccc1Cl | 0% | 0.8% | nt | 2% | -24 | 6% | -13
O=C(C1CCC1)N1CCc2cc(S(=O)(=O)NCCCN3CCCCC3)ccc21 | ? | -1.1% | -4.4 | 1% | -10 | 6% | 0
CC(CC(=O)O)CC(=O)Nc1ccc(S(N)(=O)=O)cc1 (stereo not given) | 23% | 1.7% | -5.9 | 1% | -5 | 3% | -22
Cn1ncc2c(O/N=C(\N)c3ccc(C(F)(F)F)cc3)ncnc21 | ? | -2.2% | 1.0 | 3% | 17 | 13% | ?
O=C(c1ccco1)N1N=C(c2cccs2)CC1c1ccco1 (stereo not given) | -8% | -3.6% | -0.3 | -1% | 15 | 7% | -18
CCOc1ccc(N(CC(=O)NCc2ccc(F)cc2)S(=O)(=O)c2c(C)noc2C)cc1 | 4% | -2.1% | -1.7 | -2% | -8 | -3% | -7
CCN1CCN(c2nc(C)nc3c2sc(=S)n3C)CC1 | -38%[inhibitor] | -1.6% | -2.6 | -9% | -7 | 2.8µM* | -2
CCN1CCN(C(=O)CSCc2nc(-c3ccc(OC)c(OC)c3)oc2C)CC1 | 3% | -17% | 1.8 | 0% | -4 | 10% | -11
CC(C)Oc1ccccc1/C=N/n1nnnc1N | -7% | -22% | nt | 7% | -22 | nt | nt
CC(C)C1O/C(=N/C(=O)Nc2ccc(Cl)c(Cl)c2)NC1=O (stereo not given) | -41%[inhibitor] | -1.1% | -1.1 | -18% | -11 | -4% | -9
O=C(COC(=O)C1CCCO1)Nc1cccc(C(F)(F)F)c1 (stereo not given) | -55%[inhibitor] | -2.1% | 1.4 | 7% | -2 | 14% | 0
CC(C)(C)NC(=O)CN(C(=O)C1(C)CC(=O)N=C2C=CC=CN21)C1CCCC1 (stereo not given) | -46%[inhibitor] | ? | 1.1 | 6% | -4 | 16% | -23
O=C(Sc1n[nH]c(=O)[nH]c1=O)c1ccccc1 | -8% | 2.5% | nt | 9% | -4 | nt | nt
CCOC(=O)N1CCN(S(=O)(=O)c2ccc3c4c(cccc24)C(=O)N3)CC1 | -3%[15.4 µM] | 0.7% | nt | -1% | -6 | 4% | -11
O=C(CN1C(=O)C2C3C=CC(C3)C2C1=O)NCc1ccccc1 (stereo not given) | ? | -1.4% | 4.8 | 1% | 7 | 16% | 5
COc1ccc2[nH]c3c(c2c1)CCN1C(=O)C(CC(=O)NCC24CC5CC(CC(C5)C2)C4)C[C@H](C(=O)N2CCOCC2)[C@@]31CCC1CCCC1 (stereo not given in full) | nt | -1.1% | nt | -18% | -4 | nt | nt
COc1cccc(/C=N/NC(=S)Nc2cccc(C(=O)O)c2)c1 | -2% | -2.7% | 3.1 | -7% | -5 | 9% | 7
CC(=O)NCCc1ccc(S(=O)(=O)N(C)C2CCS(=O)(=O)C2)cc1 (stereo not given) | 6% | 0.0% | -8.9 | -1% | 7 | 12% | -29
Cc1oc(-c2ccccc2F)nc1CS(=O)CC(=O)NCc1ccc(Cl)cc1 (stereo not given) | ? | -3.2% | -2.2 | 5% | -7 | 9% | 10
CN(Cc1n[nH]c(=S)n1C)S(=O)(=O)c1ccccc1 | -10% | 0.1% | -3.4 | 2% | -12 | 7% | -7
COc1cc(CN(C(=S)NCC(=O)NC2CC2)C2CCCC2)cc(OC)c1OC | 5%[15.4 µM] | -12% | -0.7 | 8% | -5 | -7% | -2
CC(C)C[C@H](NC(=O)[C@@H]1Cc2ccccc2CN1)C(=O)Nc1ccc(C(C)C)cc1 | 11% | -3.2% | nt | 12% | -32 | 1% | -9
Cc1ccc(C(=O)NCCNC(=O)COc2ccc(Cl)cc2)cn1 | 0%[15.4 µM] | nt | 0.2 | 0% | 2 | 12% | 9
COC(=O)c1cc(C(=O)N2CCOCC2)cc([N+](=O)[O-])c1 | -7% | -1.8% | 0.0 | 3% | -11 | 14% | -6
CC(=O)c1c(C)[nH]c(C(=O)COC(=O)CN2C(=O)C3CCCCC3C2=O)c1C (stereo not given) | -48%[inhibitor] | 1.5% | nt | 2% | -5 | nt | nt
CCOc1ccc(NC(=O)CCn2ccnc2)cc1 | 23%[15.4 µM] | nt | -0.2 | 11% | 0 | 8% | 2
O=C(N/N=C/c1cc([N+](=O)[O-])ccc1O)c1cccc2cc[nH]c12 | 13% | 1.8% | 6.4 | -4% | 1 | 6% | nt
Cc1cc(C(=O)Nc2ccc(C(=O)O)cc2)c(-c2ccccc2)o1 | -4% | -20% | 1.6 | -17% | -15 | 8% | -20
CC(C)C(NC(=O)c1ccco1)C(=O)OCC(=O)N1CC(=O)Nc2ccccc21 (stereo not given) | 4%[15.4 µM] | 0.3% | nt | 7% | -2 | nt | 2

From PubChem BioAssay
